# miR-21 reporter – raises the signal of a miR-21 reporter; HeLa miR-21 FLuc reporter, luciferase, 48 h; Potency, µM (series often up to 38.3 µM), inactives show top-dose reporter change, positive = more light; 340,000 tested, under 10 active; active = well fitted rising curve with a large enough effect; inconclusive = small, poorly fitted or top-dose-only effect; inactive = no such curve, though single readings can be large or run the other way;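 note: % of control where 0% means no effect; miR-21 action dims this reporter so a rising signal means less miR-21 action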
#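 Luminescence from a firefly luciferase reporter carrying a miR-21 binding site downstream, stably expressed under a CMV promoter in HeLa cells that make miR-21 endogenously, reports miRNA modulation after 48 h compound exposure up to approximately 40uM final.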
# * hit, by the source's call; ? = inconclusive. These rows are one share of the data; rates above refer to the full screens.
miR-21 reporter | compound
0.9% | COc1ccccc1CNC(=O)c1c(O)nc2c(C)cccn2c1=O
-3.6% | Cc1ccc(N2CC(NC(=O)Cc3ccc(F)cc3)CC2=O)cc1C (stereo unspecified)
26.1% | CCOC(=O)c1ccc(NC(=O)c2ccc(=O)n(Cc3cccc(C)c3)c2)cc1
-8.4% | CCOc1ccc(/C=C/C(=O)Nc2sc3c(c2C(=O)OC)CCC3)cc1
1.1% | CCOc1ccccc1NC(=O)C1CCCN(S(=O)(=O)c2cccs2)C1 (stereo unspecified)
2.3% | CCOC(=O)c1cnc2c(ccc3ccccc32)c1Nc1ccc(N(C)C)cc1
13.6% | CCOc1ccccc1NC(=O)COc1ccc(S(=O)(=O)NC2CCCCC2)cc1
-24.2% | O=C(CCn1cccn1)Nc1ccc(Br)cc1F
4.0% | COC(=O)c1ccc2c(=O)n(CCCCCC(=O)N3CCN(c4ccc(OC)cc4)CC3)c(=O)[nH]c2c1
-13.8% | CC(=O)Nc1nonc1-c1nnc(SCc2ccccc2F)n1C
-3.2% | COCCCNC(=O)CN1C(=O)c2c(c3ccccc3n2C)C1c1ccc(OC)cc1 (stereo unspecified)
4.8% | Cc1ccc(-n2nc3c(=O)n(C(C)C(=O)O)nc(C)c3c2C)cc1 (stereo unspecified)
-21.6% | CCn1c2ccccc2c2cc(CN3CCN(Cc4cc(OC)c(O)c(OC)c4)CC3)ccc21
-5.8% | CCOC(=O)c1ccc(CN(Cc2ccc(Cl)cc2Cl)S(=O)(=O)c2cccc(Cl)c2)cc1
-1.5% | COc1nc(-c2ccc(C)cc2)ccc1-c1noc(-c2ccc(C(C)(C)C)cc2)n1

# The final two entries of the section before open the next one.
miR-21 reporter | compound
-5.8% | CCOC(=O)c1ccc(CN(Cc2ccc(Cl)cc2Cl)S(=O)(=O)c2cccc(Cl)c2)cc1
-1.5% | COc1nc(-c2ccc(C)cc2)ccc1-c1noc(-c2ccc(C(C)(C)C)cc2)n1
-0.1% | CCOC(=O)c1sc(NC(=O)c2cc(CC)on2)c(C(=O)OCC)c1C
4.3% | Cc1[nH]c2ccc(Br)cc2c1CCNC(=O)c1cc2ccccc2oc1=O
-1.9% | CN1C(=O)Cc2cc(S(=O)(=O)CCC(=O)Nc3ccc(Cl)c(C(F)(F)F)c3)ccc21
-31.7% | Cc1ccc(CCNC(=O)c2ccc3c(c2)nc2n3CCOC2)cc1
9.6% | COc1ccc(-c2cc(C(F)(F)F)nc(SCCC(=O)Nc3cccc(OC)c3)n2)cc1
-1.2% | Cc1ccc2[nH]c3c(=O)n(CC(=O)N4CCN(c5cccc(C(F)(F)F)c5)CC4)ncc3c2c1
-2.2% | Cc1ccccc1-c1nc(SCC(=O)NCc2ccc(F)cc2)c2c(=O)n(C)c(=O)n(C)c2n1
-1.5% | CC(C)CCNC(=O)C1CCN(S(=O)(=O)c2cccc3nsnc23)CC1
-0.5% | CCOc1cc(-c2nc(-c3ccc(Br)cc3)no2)cc(OCC)c1OCC
1.5% | O=C(Nc1ccc(Br)cc1F)N1CC=C(c2c[nH]c3ccccc23)CC1
? | CCCCn1c(SCC(=O)Nc2cccc(OC)c2)nc2ccsc2c1=O
1.2% | Cc1[nH]c2c(C)cccc2c1CCNC(=O)c1cc2ccccc2oc1=O
0.6% | Brc1cccc(-c2nnn3c2nc(N2CCCCC2)c2ccccc23)c1
-1.2% | COc1ccc(NC(=O)CSC2=Nc3ccccc3C3=NC(CCC(=O)NC4CCCCC4)C(=O)N23)cc1Cl (stereo unspecified)
-1.6% | CC1=C(c2ccc(C)c(C)c2)S(=O)(=O)N=C1N1CCC(C(=O)N2CCC(C)CC2)CC1

# Five of the entries above in order of the miR-21 reporter value, falling:
SMILES | miR-21 reporter
Cc1[nH]c2c(C)cccc2c1CCNC(=O)c1cc2ccccc2oc1=O | 1.2%
Cc1ccc2[nH]c3c(=O)n(CC(=O)N4CCN(c5cccc(C(F)(F)F)c5)CC4)ncc3c2c1 | -1.2%
CC(C)CCNC(=O)C1CCN(S(=O)(=O)c2cccc3nsnc23)CC1 | -1.5%
CC1=C(c2ccc(C)c(C)c2)S(=O)(=O)N=C1N1CCC(C(=O)N2CCC(C)CC2)CC1 | -1.6%
Cc1ccc(CCNC(=O)c2ccc3c(c2)nc2n3CCOC2)cc1 | -31.7%

# A second format for three compounds above:
> Cc1ccc(CCNC(=O)c2ccc3c(c2)nc2n3CCOC2)cc1
  miR-21 reporter = -31.7%
> COc1ccc(-c2cc(C(F)(F)F)nc(SCCC(=O)Nc3cccc(OC)c3)n2)cc1
  miR-21 reporter = 9.6%
> Cc1ccc2[nH]c3c(=O)n(CC(=O)N4CCN(c5cccc(C(F)(F)F)c5)CC4)ncc3c2c1
  miR-21 reporter = -1.2%
